# Source: PubChem BioAssay (several laboratories)
# HNF4A DNA FP: change in binding of human HNF4 alpha to DNA | HNF4a-FITC DNA binding, fluorescence polarization, 1 h | activity change, % at 10 µM | 0.3% of 360,000 active | AID 1224865; in the data active = activity change above about 30%, passing the limit was not always enough;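 also: controls were the assay level and a saturating level of protein; the project sought stronger binding though the title names inhibitors; some compounds called inactive have numbers as strong as hits; positive values seem to mean higher polarization but the record does not say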
# Target sequence (P41235 whole entry, looked up): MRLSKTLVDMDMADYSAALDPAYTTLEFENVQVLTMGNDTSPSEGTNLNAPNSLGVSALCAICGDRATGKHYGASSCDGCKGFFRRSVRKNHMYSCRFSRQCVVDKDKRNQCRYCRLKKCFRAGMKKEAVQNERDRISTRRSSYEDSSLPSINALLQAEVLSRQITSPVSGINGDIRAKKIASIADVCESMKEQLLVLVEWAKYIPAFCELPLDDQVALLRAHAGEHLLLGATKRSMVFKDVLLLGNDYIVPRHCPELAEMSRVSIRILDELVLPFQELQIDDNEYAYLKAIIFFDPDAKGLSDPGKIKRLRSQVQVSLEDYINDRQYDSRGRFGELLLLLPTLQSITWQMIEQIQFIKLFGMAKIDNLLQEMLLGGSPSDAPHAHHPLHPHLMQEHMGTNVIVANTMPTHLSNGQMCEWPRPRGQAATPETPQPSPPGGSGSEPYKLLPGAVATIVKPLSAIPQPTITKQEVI
# RanGTP-Impb inh: disruptors of Ran-importin-beta complex formation – biochemical, FRET, CFP-Ran, YFP-importin-beta, homogeneous, primary screen. cell-free CFP-Ran/YFP-importin-beta FRET ratio. inhibition, % (no concentration beside the values). 1.1% of 300,000 active;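 active = most replicates above 15%; inconclusive = exactly half above 15%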;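 also: 0% = DMSO wells and 100% = Ran loaded with GDP instead of GTP; wells of about 40 µL received 100 nL stock; the first replicate is given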
# FGF22 binding: binders of recombinant human FGF22 by thermal shift; Q9HCT0; SYPRO orange fluorescence; percent of sucrose octasulfate shift, DMSO zero; calls only at 9.99 µM; 1.5% of 340,000 active; AID 651658;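 active = melting point raised past a set limit in the mean and every replicate; inconclusive = no clear call; three in four hits are not shown here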
# Target sequence (Q9HCT0 whole entry, looked up): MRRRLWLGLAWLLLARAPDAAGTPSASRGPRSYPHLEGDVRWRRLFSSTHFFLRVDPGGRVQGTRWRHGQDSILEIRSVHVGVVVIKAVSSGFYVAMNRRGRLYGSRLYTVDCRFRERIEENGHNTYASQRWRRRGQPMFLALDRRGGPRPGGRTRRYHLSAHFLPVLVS
# Vif A3G: inhibitors of Vif binding to APOBEC3G peptide, primary screen, biochemical, TR-FRET, GST-Vif 1-94, biotin-A3G peptide, dose response retest (AID 1117319). inhibition, %; hits with a dose series show IC50 in µM. 0.57% of 260,000 active. TR-FRET GST-Vif / biotin-A3G peptide binding; higher % means a stronger effect; test concentration not given here; strong numbers were not always called active;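 active = above the screen mean plus three standard deviations and confirmed in dose response; inconclusive = results disagree or hit not tested in dose response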;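 also: Vif residues 1-94 fused to GST binding biotinylated APOBEC3G peptide 110-148; 0% = full assay without inhibitor and 100% = GST in place of GST-Vif; retest series ran down from 100 µM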
# UCH37 DUB inh: inhibitors of human deubiquitinating enzyme UCH37. purified proteasome/UCH37, Ub-AMC cleavage fluorescence. inhibition, % (concentration not given with the values). 0.33% of 330,000 active;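 active = mean of two replicates above 20%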;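 also: 0% = compound-free wells with enzyme and 100% = wells lacking proteasome; stock transfer was 100 nL into about 20 µL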
# Target sequence (Q9Y5K5 whole entry, looked up): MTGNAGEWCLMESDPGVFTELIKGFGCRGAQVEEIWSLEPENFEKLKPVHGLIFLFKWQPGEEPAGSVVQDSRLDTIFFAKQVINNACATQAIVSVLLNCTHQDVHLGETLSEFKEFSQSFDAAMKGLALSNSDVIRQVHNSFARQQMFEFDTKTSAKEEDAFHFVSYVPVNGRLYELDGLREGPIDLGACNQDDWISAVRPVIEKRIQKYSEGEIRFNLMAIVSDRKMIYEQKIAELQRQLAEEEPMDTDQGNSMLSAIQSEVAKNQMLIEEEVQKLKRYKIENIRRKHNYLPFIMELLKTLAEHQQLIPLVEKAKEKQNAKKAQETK
#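 Test system – human UCH37 enzyme supplied as purified proteasome complex · Incubation – 30 min preincubation with enzyme, 25 min cleavage at room temperature · Detection – AMC fluorescence from Ub-AMC cleavage, excitation 355 nm, emission 460 nm · Benchmarks – no-proteasome wells (full inhibition) and compound-free wells (no inhibition)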
# Ecoli growth: blocks Escherichia coli growth; 0.21% of 330,000 active; OD600, 23 h; active compounds read low; AID 1053175; OD600 absorbance (test concentration not listed);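 active = OD600 absorbance below the run mean of sample wells minus 3.6 SD, in any replicate, cut at about 0.56 in these data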;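 also: stock transfer was 300 nL into about 60 µL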
# MLL AF4-AF9 inh: inhibitors of human MLL-AF4/AF9 interaction; P42568; AlphaScreen, biotin-AF4 peptide binding to FLAG-AF9; inhibition, % at 10 µM; 0.47% of 350,000 active; AID 651704;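 active = every replicate reaching a set inhibition limit, whatever the replicate mean, cut at about 25% in these data; inconclusive = mean inhibition reaches that limit but some replicates miss it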;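 also: 0% = plate neutral control median and 100% = total signal loss; the record names both 10 and 1 µM as test concentration; the first replicate is given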
# Starred values were filed as active, the others as inactive; i = inactive; ? = inconclusive; nt = not tested or not shown; & = joins results of further samples.
SMILES,HNF4A DNA FP,RanGTP-Impb inh,FGF22 binding,Vif A3G,UCH37 DUB inh,Ecoli growth,MLL AF4-AF9 inh
COc1ccc(-c2ccc(CN3C(C(C)C)C(=O)N(Cc4cn(CCC5OCCO5)nn4)CCS3(=O)=O)cc2)cc1OC (stereo not drawn),-2.0,nt,i,nt,nt,nt,5.4
Cc1ccc(-c2cc(C(=O)N/N=C/c3ccco3)[nH]n2)cc1,-0.8,0.7,nt,20%,nt,nt,nt
Cc1ccc(O)c(C(=O)/C=C/c2ccc3c(c2)OCCCO3)c1,-2.6,3.7,i,nt,3.2,0.68,-3.1
COc1cc(C)c(Cl)cc1S(=O)(=O)NCc1ccco1,1.0,-2.7,nt,-1%,0.1,0.76,nt
O=C(CSc1nc2ccccc2c(=O)n1-c1ccc(F)cc1F)Nc1ccc2c(c1)CCC2,-2.5,-0.5,i,-1%,2.3,0.7,3.0
N#Cc1ccccc1CSCCNC(=O)Cc1c(F)cccc1Cl,1.7,2.6,i,-5%,nt,nt,0.0
CCOC(=O)N1CCN(C(=O)c2ccc(N(Cc3ccccc3Cl)S(C)(=O)=O)cc2)CC1,-4.2,2.7,i,-5%,0.8,0.68,1.6
O=C(CSc1ccc2nnc(-c3ccccn3)n2n1)N1CCN(c2ccccc2)CC1,2.5,6.6,i,10%,3.9,0.78,4.1
O=C(CCNC(=O)c1ccc(Cl)cc1)NCCCN1CCOCC1,0.3,nt,i,-15%,2.8,0.65,-3.7
CCC(C)Sc1nc2c(c(=O)[nH]c(=O)n2C)n1Cc1ccccc1Cl (stereo not drawn),-1.6,0.2,i,nt,6.9,0.76,9.7
CCOCCCNc1ccc(N2C(=O)CCCC2=O)cc1[N+](=O)[O-],-3.0,-2.7,i,-1%,6.7,0.65,-1.0
COc1ccc(OC)c(N(CC(=O)Nc2ccccc2C(=O)NCc2ccco2)S(C)(=O)=O)c1,-2.0,-0.8,nt,7%,0.7,0.66,nt
O=C1CCc2ccc(OCCCCN3CCN(c4cccc(Cl)c4Cl)CC3)cc2N1,nt,-1.3,i,-2%,3.4,0.64,-2.0
Cc1ccccc1N=C1C(=O)Nc2ccccc21,0.6,nt,i,-3%,nt,nt,-1.5
CN(CC(=O)O)S(=O)(=O)/C=C/c1ccccc1,1.0,-3.4,i,11%,1.4,0.67,-3.7
Cc1ccc(OCCCCN2CCc3ccccc3C2)cc1,1.5,0.6,i,nt,2.6,0.66,3.0
O=C(N/N=C/c1c(Cl)nc2ccccn2c1=O)c1cccnc1,1.2,8.8,i,-1%,nt,nt,-28
O=C1CC(NCCN2CCOCC2)C(=O)N1Cc1ccc(N2CCCC2=O)cc1 (stereo not drawn),-3.8,0.9,nt,-2%,1.1,0.68,nt
O=C(COC(=O)CCS(=O)(=O)c1ccccc1)Nc1cc(S(=O)(=O)N2CCCCC2)ccc1Cl,0.8,-3.1,i,5%,1.7,0.68,-5.3
C[N+](C)(C)CC(=O)N/N=C/c1c2ccccc2cc2ccccc12,-8.2,3.9,i,nt,nt,nt,5.5
COc1ccc(OCC(=O)Nc2ccc3c(c2)OCO3)cc1,-2.3,0.2,i,nt,2.4,0.63,-4.4
NC1CCCCC1N=Cc1c(O)n(CCc2ccc(F)cc2)c(=O)[nH]c1=O (stereo not drawn),-5.8,3.6,nt,-1%,-2.5,0.7,nt
O=C(NCCc1ccccc1)c1ccc2nc3cc(Cl)ccc3c(=O)n2c1,1.4,-0.6,i,-5%,-46,0.67,-1.7
COc1ccc(S(=O)(=O)NC2CC(=O)N(c3ccc(C)c(C)c3)C2)cc1C (stereo not drawn),1.2,-2.2,i,-1%,4.2,0.67,-6.2
COc1ccccc1CCNC(=O)c1cccc(S(=O)(=O)NCc2ccccc2)c1,-1.9,0.3,i,-4%,5.6,0.7,-6.7

# Exported with values under each structure: 2 of the compounds above.
# Sequence of screens: HNF4A DNA FP | RanGTP-Impb inh | FGF22 binding | Vif A3G | UCH37 DUB inh | Ecoli growth | MLL AF4-AF9 inh
- COc1ccc(S(=O)(=O)NC2CC(=O)N(c3ccc(C)c(C)c3)C2)cc1C (stereo not drawn)
→ 1.2 | -2.2 | i | -1% | 4.2 | 0.67 | -6.2
- COc1ccccc1CCNC(=O)c1cccc(S(=O)(=O)NCc2ccccc2)c1
→ -1.9 | 0.3 | i | -4% | 5.6 | 0.7 | -6.7

# Other structures follow:
SMILES,HNF4A DNA FP,RanGTP-Impb inh,FGF22 binding,Vif A3G,UCH37 DUB inh,Ecoli growth,MLL AF4-AF9 inh
CCOC(=O)c1cc2c3ccccc3n(CC)c2nc1N,3.1,1.8,nt,-10%,nt,0.72,nt
CCC(=O)Oc1ccc2c(c1)O/C(=C\c1ccco1)C2=O,-68,-21,i,?,nt,nt,-1.3
O=C(O)c1cc2cc(OCc3ccccc3)ccc2[nH]1,-0.2,-0.4,nt,3%&0%,-19,0.73,nt
CC(C)(C)c1ccc2c(c1)N(CC(=O)O)C(=O)CO2,3.7,-0.8,nt,?,1.3,0.66,nt
COc1ccc(CCNc2nc(N3CCOCC3)nc(N3CCOCC3)n2)cc1OC,0.4,-1.6,nt,-6%,2.6,0.72,nt
NC(=O)c1cccc(-c2noc(-c3ccccc3F)n2)c1,-4.8,nt,i,nt,-1.3,0.71,-3.8
Cn1c(=O)c2c(nc(NN=C3CCCCC3)n2C)n(C)c1=O,-1.9,1.0,i,?,3.3,0.68,5.3
CCCC(=O)Nc1cccc(-c2nc3ccccc3c(=O)o2)c1,-1.2,?,i,nt,-174,0.71,-4.1
Cc1noc(C)c1COc1ccc(CC(=O)NC2CCCCCC2)cc1,1.7,-0.7,i,nt,0.2,0.68,-1.8
COc1ccc(/C=C/c2nc(N)nc(-c3ccccc3O)n2)cc1,0.5,-0.8,i,nt,2.5,0.73,0.3
COc1cc(OC)cc(Oc2ccc(S(=O)(=O)N3CCCCC3)cc2[N+](=O)[O-])c1,-0.4,1.7,i,5%,2.6,0.66,7.0
O=c1[nH]nc(CNc2ccc(C(F)(F)F)cc2)c2ccccc12,2.2,?,nt,-4%,-1.8,0.71,nt
C/C(=N\NC(=O)c1cc(C)oc1C)c1ccc(C)c([N+](=O)[O-])c1,0.1,nt,i,-16%,nt,nt,1.0
COc1ccc2cc([C@H](C)C(=O)OCc3cn(CC(=O)c4ccc(O)cc4)nn3)ccc2c1,-2.6,nt,i,nt,nt,nt,-1.4
CCN(CC)S(=O)(=O)c1ccc2c(c1)c(=O)c(C(=O)NCCN(C)CCc1ccccc1)cn2C,2.8,-2.7,nt,-5%&-5%,6.2,0.71,nt
COc1ccc(C(=O)C2CCCN(C(=O)c3ccnn3C)C2)cc1OC (stereo not drawn),3.8,?,i,-3%,3.7,0.67,-1.8
CN(C)c1ccc(/C=C/C(=O)c2ccc(O)cc2)cc1[N+](=O)[O-],-2.4,5.1,i,nt,8.2,0.71,-3.1
Cc1nnc(SCC(=O)N2c3ccccc3C(C)(c3ccccc3)CC2(C)C)s1 (stereo not drawn),-2.9,-2.9,nt,2%,4.7,0.73,nt
CC(=O)N1c2ccccc2C(CBr)=CC1(C)C,-2.2,-2.9,i,nt,2.4,0.69,0.4
CC1(NC(=O)CN2CCN(c3cnn(-c4ccccc4)c(=O)c3Cl)CC2)CCS(=O)(=O)C1 (stereo not drawn),-1.3,nt,i,nt,6.0,0.67,-1.2
Cc1ccc(-c2n[nH]c(=S)n2Cc2ccccc2)cc1,-2.5,0.8,nt,-8%,4.2,0.69,nt
COCCNC(=O)Cn1c(=O)n(CCC(=O)NCCc2ccccc2)c(=O)c2ccccc21,5.3,0.9,nt,-7%,2.6,0.71,nt
O=c1cc(-c2ccccc2Cl)oc2c(NS(=O)(=O)c3ccccc3OC(F)(F)F)ccc(O)c12,nt,2.6,i,nt,1.6,0.8,-0.6
Cc1[nH]c2ccc(C(=O)OC(C)C(=O)N(C)C3CCCCC3)cc2c1C (stereo not drawn),-2.1,nt,nt,2%,-2.6,0.67,10
CCS(=O)(=O)n1nc(-c2ccc(OC)cc2)nc1N,-3.2,-2.8,i,14%,1.6,0.68,-3.1
# (next part)
SMILES,HNF4A DNA FP,RanGTP-Impb inh,FGF22 binding,Vif A3G,UCH37 DUB inh,Ecoli growth,MLL AF4-AF9 inh
COC(=O)c1sc2nc(N)c(C#N)cc2c1N,5.0,6.7,nt,4%,-3.9,0.67,nt
CC(=O)Nc1ccc(NC(=O)C2CCN(c3c(Cc4ccccc4)c(C)nc4ncnn34)CC2)cc1,-3.2,0.3,nt,-9%,-6.0,0.75,nt
O=C(CSc1nc2ncc(Cl)cc2[nH]1)Nc1cccc(F)c1,1.6,1.8,i,nt,3.0,0.61,-0.3
NC(=O)C1=C[C@H](c2coc3ccccc3c2=O)C[C@H](OCc2ccc(CO)cc2)O1,-5.1,2.4,i,1%,-0.1,nt,-3.8
COc1ccc(CN2CCN(Cc3c[nH]c4ccccc34)CC2)cc1OC,2.4,nt,i,4%,nt,nt,-1.6
Cc1nnc(NC2=NCCCCC2)o1,-0.7,-1.3,nt,-8%,0.0,0.71,nt
CC(Oc1ccc(Cl)cc1)C(=O)NCCN1C(=O)S/C(=C\c2cccnc2)C1=O (stereo not drawn),-2.1,-5.1,nt,nt,3.9,nt,nt
O=c1c2c3c(sc2ncn1-n1cccc1)CCCCC3,-1.5,0.1,nt,3%,1.4,0.71,nt
O=C(C[C@H]1C/C=C\C[C@@H](Cc2ccc(F)cc2)C(=O)OC[C@H]2CCCN2C1=O)N[C@@H](CO)Cc1ccccc1,4.7,nt,i,nt,-0.4,nt,0.4
COc1ccc(NC(=O)CCSc2nnnn2C)cc1,4.6,3.9,i,1%,-0.5,0.72,-1.2
Nc1c(C(=O)CSc2nc(-c3ccccc3)cs2)c(=O)[nH]c(=O)n1C1CC1,6.8,nt,i,-4%,0.5,0.64,-2.8
CCOC(=O)N1CCN(c2ccc(Cl)cc2)CC1,4.4,-2.2,i,-3%,3.8,0.7,-3.4
CCc1ccc(NS(=O)(=O)c2c(C)noc2C)cc1,-0.5,2.9,i,2%,-1.9,0.68,2.1
O=C(COc1ccc(Cl)c(Cl)c1)NN1C(=O)C2C(C1=O)C1C=CC2C12CC2 (stereo not drawn),-2.2,-0.7,i,-8%,0.5,0.69,-1.2
CC(=O)c1ccc(N2CCN(C(=S)Nc3ccc(Cl)c(Cl)c3)CC2)cc1,0.6,3.0,i,2%,1.3,0.72,-0.1
Cc1ccc(C(=O)C(C)OC(=O)Cn2c(C)csc2=O)cc1 (stereo not drawn),0.1,-1.0,i,nt,0.9,0.7,-0.2
COc1ccc(/C(C)=N/Nc2nncc3ccccc23)cc1,0.0,-2.8,i,-3%,nt,nt,1.8
CC(C)c1cc(C(=O)N/N=C/c2cccnc2)n[nH]1,2.1,4.9,nt,1%,nt,nt,nt
COc1ccc(/C=C2/SC(=S)N(NS(=O)(=O)c3ccccc3)C2=O)cc1,2.5,-2.2,nt,nt,12,0.65,-2.0
Cc1cc(C)cc(NC(=O)c2cc(C)nc3ccccc23)c1,1.0,-0.2,i,nt,2.6,0.68,-3.0
O=C1Nc2ccccc2C1Cc1ccccc1 (stereo not drawn),-2.8,3.7,i,-11%,4.2,0.65,0.5
CC1(C)CC(=O)C2=C(C1)NCN(CCCN1CCOCC1)C2,0.6,1.9,nt,nt,2.9,0.69,nt
CCOc1ccc(Nc2cc(=O)[nH]c(=O)[nH]2)cc1,-1.8,-2.4,i,nt,2.0,0.71,0.1
C/C=C/C(=O)Nc1cccc(C2=NOC3(C2)C[C@@H](C(N)=O)N(C(=O)c2cc([N+](=O)[O-])cc([N+](=O)[O-])c2C)C3)c1 (stereo partly drawn),-1.2,1.0,i,nt,2.5,nt,-11
CC(C(=O)Nc1ccccc1F)N1C(=O)c2ccccc2C1=O (stereo not drawn),0.7,0.0,nt,2%,-0.7,0.72,nt
CCOC(=O)/C(C#N)=C/c1ccc(OCC(=O)Nc2ccc(C)c(C)c2)c(OC)c1,-0.6,6.0,nt,nt,-111,0.7,nt

# Only part of the results is shown, so the mix of outcomes need not match the whole.
